High-throughput results (PubChem BioAssay)
HPGD inh – HPGD (human) dehydrogenase inhibition; P15428; purified HPGD, NADH fluorescence kinetic, PGE2 substrate; Potency, µM, without a hit: at the highest dose activity change, negative = inhibition, usual class: inhibitors; 150,000 tested, 4.3% active; AID 894; active = well fitted inhibition curve with a large enough effect (not every such curve was filed as active); inconclusive = small, poorly fitted or top-dose-only effect, or another doubt; inactive = no such curve, though single readings can be large or run the other way;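 further: top concentration of the series not given in the record; plate controls included wells without enzyme; inactives centre near -10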
Target sequence (P15428 whole entry, looked up): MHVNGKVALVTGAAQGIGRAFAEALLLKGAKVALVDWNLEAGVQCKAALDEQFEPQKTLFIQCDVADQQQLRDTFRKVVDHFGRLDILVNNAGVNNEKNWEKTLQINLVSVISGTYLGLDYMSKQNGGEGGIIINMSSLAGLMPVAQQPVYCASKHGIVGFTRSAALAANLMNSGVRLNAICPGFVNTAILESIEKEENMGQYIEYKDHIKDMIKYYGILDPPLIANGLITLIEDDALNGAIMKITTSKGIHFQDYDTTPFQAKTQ
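20 nM HPGD preincubated 15 min at room temperature with compound in 50 mM Tris-HCl pH 8, 0.01% Tween 20. Started with 1 mM NAD+ and 30 uM prostaglandin E2; NADH fluorescence (360/450 nm) read 5 times over 30-s intervals, last minus first.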
* hit, by the source's call; ? = inconclusive; & = joins results of further samples. On the % scale 0 is the no-effect control and ±100 the full control effect; potency means the concentration at half of the fitted maximal effect.

SMILES	HPGD inh
CCOc1cc(/C=N/O)cc(Br)c1OCC(=O)NCc1ccccc1	17.8µM*
Cc1nc2ncnn2c(N2CCN(C(=O)Cc3cccs3)CC2)c1C	-23.1%
Cc1nn(C)c(Oc2ccccc2)c1CCNS(=O)(=O)c1ccccc1	3.5%
CCOc1ccc(/C(O)=C2/C(=O)C(=O)N(CCOCCO)C2c2ccccc2)cc1 (stereo unspecified)	-11.0%
CCOC(=O)N1CCN(CC(=O)Nc2c(C(=O)OC)[nH]c3ccccc23)CC1	-16.3%
COCCn1c(C)cc(C(=O)CSc2ccc(NC(C)=O)cc2)c1C	-9.1%
CCCCn1c(=O)nc2n(-c3ccc(Cl)cc3)c3ccccc3cc-2c1=O	?
Cn1cccc1/C=N/NC(=O)C12CC3CC(CC(C3)C1)C2	-2.5%
COc1ccccc1Cn1c(-c2ccccc2OC)nc2ccccc21	-14.9%
CCC(C)(C)NC(=O)C(c1ccc(C)cc1)N(Cc1ccco1)C(=O)CCC(=O)Nc1nccs1 (stereo unspecified)	-8.0%
CC(C)(C)c1nc2sc3c(c2c(=O)o1)CCCC3	?
O=C(NCc1ccco1)c1ccc(=O)[nH]n1	-12.9%
Cc1cnc(C)c(N2CCC(C(=O)NCc3cccs3)CC2)n1	-12.5%
CC(C)(C)NS(=O)(=O)c1cc(C(=O)Nc2sccc2C#N)ccc1Cl	-18.2%
CC(C)(C)C(=O)/C=C(\N)c1ccccn1	-7.9%
COc1cc(Cl)c(C)cc1NC(=O)CSc1ccc(NC(C)=O)cc1	-1.2%
Cc1c(CCOC(=O)C23CC4CC(CC(C4)C2)C3)sc[n+]1Cc1ccccc1	-8.1%
Cc1nnc(NC(=O)CN2C(=O)c3ccccc3S2(=O)=O)s1	-8.8%
Cc1ccc2nc(NCC(=O)O)nc(-c3ccccc3)c2c1	-28.9%
CCn1c(SCC(=O)c2ccccc2)nnc1-c1cnccn1	17.8µM*
CCOC(=O)Cn1c(=NC(=O)c2ccc([N+](=O)[O-])s2)sc2ccccc21	-1.2%
CC[C@H](CN(C)C)C(=O)c1ccco1	-7.2%
Cc1ccc(SCC(=O)NC(=O)Nc2ccc3c(c2)OCCO3)cc1C	-8.6%
Cc1ccc(NC(=O)NC(=S)NC(=O)c2ccccc2)cc1	-18.8%
COCCCNC(=O)CN(c1cccc(Cl)c1C)S(C)(=O)=O	-17.1%
COc1ccc(CN=Cc2c(C(F)(F)F)[nH][nH]c2=O)cc1	-16.4%
CN(C)S(=O)(=O)c1cccc(NC(=O)c2cncc(Br)c2)c1	-5.7%
Cc1ccc(Nc2nc(N)nc(CN3CCN(c4ccccc4)CC3)n2)cc1Cl	-6.5%
CCOC(=O)c1c(C)c(C(=O)Nc2ccccc2)c(C)n1CC	-0.7%
CCCCc1ccc(N=N/C(C(=O)Nc2cc(OC)c(NC(C)=O)cc2OC)=C(/C)O)cc1	-6.6%
O=C(NC1CCCCC1)C(c1ccncc1)N(CC1CCCO1)C(=O)C(F)(F)F (stereo unspecified)	-12.1%
Cc1ccc(NC(=S)c2ccc(N(C)C)cc2)cc1	-7.0%
O=S(=O)(NCc1ccncc1)c1ccc(S(=O)(=O)NCC2CCCO2)cc1 (stereo unspecified)	-0.3%
O=C1CC(C(=O)N(CC2CCCO2)C(C(=O)NC2CCCCC2)c2ccncc2)CS1 (stereo unspecified)	-0.9%
CCCCN(CC)Cc1ccc(CNC(=O)Nc2ccc(OCC)cc2)o1	-2.9%
COC(=O)C1=C(C)NC(C)=C(C(=O)OC)C1c1ccc2ccccc2n1	-8.4%
Cn1cccc1C(=O)N1CCC2(CCCN(C(=O)Nc3cccc(C#N)c3)C2)CC1	-2.4%
COC(=O)[C@@H](NC(=O)O[C@H]1C(=O)c2cc(OC)ccc2O[C@@H]1c1ccc(OC)c(Br)c1)C(C)C	-16.4%
CC(NC(=O)Cn1cnc([N+](=O)[O-])n1)c1ccccc1 (stereo unspecified)	4.1%
CC(=O)c1ccccc1OCC(O)CN1CCN(C(c2ccccc2)c2ccccc2)CC1 (stereo unspecified)	-29.9%
CCCCNc1oc(-c2ccc(OC)cc2)nc1S(=O)(=O)c1ccccc1	?
Cc1ccccc1CN1CCN(CC(=O)NCc2ccc3c(c2)OCO3)C1=O	-14.7%
CCc1nnc(NC(=O)CSc2nc3ccccc3o2)s1	-12.1%
O=S(=O)(c1ccc2nc(COc3ccccc3)[nH]c2c1)N1CCOCC1	-2.7%
COc1cccc(-c2nnc(-c3ccc(C(F)(F)F)cc3)o2)c1OC	-11.4%
O=c1ncccn1[C@@H]1O[C@H](CO)C(O)[C@@H]1O (stereo partly specified)	-25.6%
CCCCNC(=O)Cc1c(OC)ccc2cc(Br)ccc12	-15.9%
O=C(NCc1ccccn1)c1cc(-c2ccccc2Cl)on1	14.1µM*

Of the compounds above, 2 contain a nitro group on carbon:
SMILES	HPGD inh
CCOC(=O)Cn1c(=NC(=O)c2ccc([N+](=O)[O-])s2)sc2ccccc21	-1.2%
CC(NC(=O)Cn1cnc([N+](=O)[O-])n1)c1ccccc1 (stereo unspecified)	4.1%

Following part.
SMILES	HPGD inh
CCC(C)(C)n1nnnc1C(c1cc2cc3c(cc2[nH]c1=O)OCO3)N1CCN(C)CC1 (stereo unspecified)	?
CCOC(=O)CNC(=O)CN1CCCN(S(=O)(=O)c2ccc(Br)s2)CC1	-7.5%
O=C(CCC1CC(=O)Nc2ccccc21)NCc1ccc(F)cc1 (stereo unspecified)	-4.1%
O=C(NCc1ccco1)C12CC3CC(C1)CC(C(=O)NCc1ccco1)(C3)C2	-9.7%
COc1cc(C)c(Br)cc1S(=O)(=O)NCc1ccccc1	1.6%
CCCCCn1c(SCCOCC)nc2c1c(=O)[nH]c(=O)n2C	-3.8%
O=C(Nc1nnc(SCc2ccc(F)cc2)s1)C1Cc2ccccc2CN1C(=O)c1ccco1 (stereo unspecified)	?
CCN(CC)S(=O)(=O)c1ccc2oc(C(=O)N3CCc4ccccc4C3)c(C)c2c1	28.2µM*
O=C(CN(C(=O)c1ccccc1Cl)C1CCCCC1)Nc1ccc(Cl)c([N+](=O)[O-])c1	-5.0%
C[C@@H]1O[C@@H](O)[C@@H](O)[C@H](O)[C@H]1O	-2.9%
COc1cccc(-c2cc(C(=O)Nc3c(C)nn(Cc4ccccc4)c3C)no2)c1	-16.6%
CC(C)C1NC(=S)N(Cc2ccccc2)C1=O (stereo unspecified)	-2.4%
CCOC(=O)c1cc(-c2ccc(C)cc2)n(CC(=O)NCc2ccco2)c1C	-6.9%
COC(=O)[C@@H]1C[C@H]1[C@@H](NS(=O)(=O)c1ccccc1)c1ccccc1	0.3%&-0.4%
CCn1c(=O)c(=O)[nH]c2cc(C(=O)Nc3ccc(S(=O)(=O)N4CCCC4)cc3)ccc21	-19.0%
c1cncc(C2Nc3ccccc3-c3nc4ccccc4n32)c1 (stereo unspecified)	?
COc1ccc(NC(=O)C2CCCN(S(=O)(=O)c3cccc4nonc34)C2)cc1 (stereo unspecified)	-8.5%
COc1ccc(N2CCN(C(=O)Cn3c(=O)[nH]c4ccsc4c3=O)CC2)cc1	-8.9%
CCOC(=O)COn1c(=O)c(C)[n+]([O-])c2ccccc21	-5.3%
COC(=O)c1ccc(COC(=O)CCc2nc(-c3ccccc3)c(-c3ccccc3)o2)cc1	?
C[C@@]12CC[C@@H]3[C@H](CCC4=CC(=O)CC[C@]43C)[C@@H]1CC[C@@H]2C(=O)COS(=O)(=O)c1ccc(Br)cc1	-13.7%
COc1cc(/C=N/NC(=O)C(C)Nc2n[nH]c(=O)[nH]c2=O)cc(OC)c1O (stereo unspecified)	-16.4%
O=c1nc(N2CCOCC2)ccn1Cc1ccc(Br)cc1	-3.6%
COc1ccccc1NC(=S)N(Cc1ccco1)Cc1cc2cc(C)c(C)cc2[nH]c1=O	-12.9%
c1ccc(-c2nccc(-c3ccc(-n4cnc5ccccc54)cc3)n2)nc1	-20.9%
CN(C)c1ccc(-c2n(C)c3ccccc3[n+]2C)cc1	-28.1%
CCN(CC)CCNC(=O)c1ccc(Cc2nc3ccccc3[nH]2)cc1	0.3%
Cc1ccc(CNC(=O)Cc2ccc(-n3c(=O)[nH]c4ccsc4c3=O)cc2)cc1	-1.4%
Cc1cccc2sc(NC(=O)CN(C)S(=O)(=O)c3cccs3)nc12	-6.4%
Cc1ccc(S(=O)(=O)N2CCCCC2)cc1C(=O)c1nccn1C	-2.6%
CC1=C(C)CC(C(=O)NNC(=O)c2csc(C)c2C)C(C(=O)O)C1 (stereo unspecified)	-13.5%
Cc1nc2c(ccc3nc(NC(=O)c4ccc5c(c4)OCCO5)sc32)s1	?
Cc1cc[n+](-c2[nH]c(=O)sc2/C=N/NC([S-])=Nc2ccccc2)cc1C	-26.1%
Brc1ccc(-c2nc(-c3cccnc3)no2)o1	-19.8%
CCNc1nc(NCC)n2c(SC(C(=O)Nc3cc(Cl)cc(Cl)c3)c3ccccc3)nnc2n1 (stereo unspecified)	-7.9%
CCOC(=O)c1ccc(N(C(=O)c2cnccn2)C(C(=O)NC2CCCCC2)c2cn(C)nc2C)cc1 (stereo unspecified)	-14.9%
COc1ccccc1-n1c(C)cc(C=O)c1C	-6.5%
COc1ccc(S(=O)(=O)N(CC(=O)NC(C)C)Cc2ccccc2)cc1	-0.1%
COc1ccc2c(-c3ccccc3)cc(SCC(=O)N(C)C3CCS(=O)(=O)C3)nc2c1 (stereo unspecified)	?
c1ccc(-c2noc(-c3ccncc3)n2)nc1	-17.6%
COc1ccc(N=[N+]([O-])c2ccc(OC)cc2)cc1	-3.1%
COc1ccc(NC(C)C(=O)N/N=C/c2ccccc2OCc2cccc(Br)c2)cc1 (stereo unspecified)	-8.2%
CCc1ccccc1N(CC(=O)O)S(C)(=O)=O	-7.5%
O=C(O)C[C@@H]1NC(=O)[C@H](Cc2ccccc2)NC1=O	-8.8%
CC1CCCCN1Cc1ccc(-c2nnn(CC(=O)NC3CCCCC3)n2)cc1 (stereo unspecified)	-9.2%
Cc1ccc2[nH]c3c(c2c1)CN(C(=O)CN1CCCc2ccccc21)CC3	22.4µM*
COc1cccc(/C=N/NC(=O)C(C)n2nc(C)c([N+](=O)[O-])c2C)c1O (stereo unspecified)	-10.7%
CCOCCCNCC(=O)NC1(C)C2CCC(C2)C1(C)C (stereo unspecified)	-11.2%

A draw from above in order of molar mass, rising.
SMILES	HPGD inh
COc1cccc(/C=N/NC(=O)C(C)n2nc(C)c([N+](=O)[O-])c2C)c1O (stereo unspecified)	-10.7%
COc1ccc2c(-c3ccccc3)cc(SCC(=O)N(C)C3CCS(=O)(=O)C3)nc2c1 (stereo unspecified)	?
COc1ccc(NC(C)C(=O)N/N=C/c2ccccc2OCc2cccc(Br)c2)cc1 (stereo unspecified)	-8.2%

A stretch of the results above, as a working copy:
SMILES	HPGD inh
CC1CCCCN1Cc1ccc(-c2nnn(CC(=O)NC3CCCCC3)n2)cc1 (stereo unspecified)	-9.2%
Cc1ccc2[nH]c3c(c2c1)CN(C(=O)CN1CCCc2ccccc21)CC3	22.4µM*
COc1cccc(/C=N/NC(=O)C(C)n2nc(C)c([N+](=O)[O-])c2C)c1O (stereo unspecified)	-10.7%
CCOCCCNCC(=O)NC1(C)C2CCC(C2)C1(C)C (stereo unspecified)	-11.2%

Following part.
SMILES	HPGD inh
Cc1cc(C)cc(-n2c(C)cc(/C=N/NC(=O)c3cccc([N+](=O)[O-])c3C)c2C)c1	-21.1%
O=C(CSCc1ccc(Br)cc1)Nc1ccc(S(=O)(=O)N2CCOCC2)cc1	-3.3%
CC(C)(C)c1ccc(O)c(CN(Cc2cc(C(C)(C)C)ccc2O)c2ccccc2)c1	-9.6%
Cc1nc2ccc3nc(NC(=O)C4COc5ccccc5O4)sc3c2s1 (stereo unspecified)	-7.9%
O=C(NCCCN1CCOCC1)c1cc2c(s1)CCC2	-7.5%
CCn1c(=O)c2c(n3cnnc13)-c1ccccc1CC21CCCCC1	-3.4%
Cc1nc2c(ccc3c2ccc2nc(C)sc23)s1	-13.1%
COc1cccc(C(=O)c2sc(NC(C)C)nc2N)c1	-27.9%
COc1ccccc1NCC(=O)N/N=C(\C)c1ccc(Br)s1	-5.7%
Cc1ccc(N(C(=O)Cn2nnc(-c3cccs3)n2)C(C(=O)NC2CCCC2)c2ccncc2)cc1 (stereo unspecified)	-5.3%
CCn1c(SCC(=O)c2ccc(Cl)cc2)nnc1C(C)C	?
O=C(Nc1cc(C(F)(F)F)ccc1N1CCOCC1)c1ccc2ccccc2n1	-18.6%
CCCN1CC23C=CC(O2)C(C(=O)O)C3C1=O (stereo unspecified)	-9.6%
N[C@@H](CCCCO)C(=O)O	-10.6%
Cc1ccc(N(C(=O)C2CCCO2)C2C=CS(=O)(=O)C2)cc1Cl (stereo unspecified)	1.5%
CCn1c(SCC(=O)Nc2ccc3c(c2)c2ccccc2n3CC)nnc1-c1cnccn1	-0.5%
CCCCn1c(CN2CCN(c3ccccc3)CC2)nc2c1c(=O)n(C)c(=O)n2C	-5.4%
CCOC(=O)c1c(NC(=O)Nc2cccc(Cl)c2)sc(C)c1C	?
Nc1c(C(=O)NCc2ccco2)sc2nc3c(cc12)C(=O)CCC3	-26.8%
COCCN1C(=O)N(c2cccc(C)c2)C(=O)C1CC(=O)Nc1ccc(F)cc1 (stereo unspecified)	-16.5%
Oc1ccccc1C(Sc1nc2ccccc2s1)Sc1nc2ccccc2s1	3.98µM*
CCOC(=O)C1CCN(CCC(=O)Nc2ccc(Cl)cc2)CC1	-8.3%
CC(C)=C1SC(N2CCOCC2)=NC1=O	-6.0%
O=C(Nc1ccc2c(c1)OCO2)c1ccc[n+]([O-])c1	-3.7%
O=C(CCn1c(=O)sc2ccccc21)NCc1cccs1	-2.0%
COc1ccc2c(c1)O[C@@H](c1ccc3c(c1)OCO3)[C@H](O)C2=O	-6.0%
CCc1c(C)nc(SC)n(CC#N)c1=O	-2.3%
O=C(Cc1coc2cc3c(cc12)CCC3)OCc1cc(=O)n2c(n1)sc1ccccc12	?
COc1ccc(-c2cc(-n3c(C(F)(F)F)nc4ccccc43)n(CCC#N)n2)cc1	?
O=S(=O)(c1ccccc1)c1cnc(-c2cccnc2)nc1-c1ccc(Cl)cc1Cl	-17.8%

This is a subset; count on the stated rates, not on these rows.
